Assay outcomes as filed in PubChem BioAssay.
AmpC inh no det – Promiscuous and Specific Inhibitors of AmpC Beta-Lactamase (assay without detergent). P00811. AmpC nitrocefin hydrolysis, absorbance 480 nm, no detergent; potencies from a single point are estimates. Potency, µM (top dose mostly 28.7 µM), inactives show top-dose activity change, negative = inhibition. 1.8% of 71,000 active; active = falling curve, for most hits resting on a single point; inconclusive = weak or doubtful change; inactive = flat or rising curve; also: % of control where 0% means no effect; about half of the hits show no inhibition at the top dose; a quarter of the inactives give rising signals
Target sequence (P00811 whole entry, looked up): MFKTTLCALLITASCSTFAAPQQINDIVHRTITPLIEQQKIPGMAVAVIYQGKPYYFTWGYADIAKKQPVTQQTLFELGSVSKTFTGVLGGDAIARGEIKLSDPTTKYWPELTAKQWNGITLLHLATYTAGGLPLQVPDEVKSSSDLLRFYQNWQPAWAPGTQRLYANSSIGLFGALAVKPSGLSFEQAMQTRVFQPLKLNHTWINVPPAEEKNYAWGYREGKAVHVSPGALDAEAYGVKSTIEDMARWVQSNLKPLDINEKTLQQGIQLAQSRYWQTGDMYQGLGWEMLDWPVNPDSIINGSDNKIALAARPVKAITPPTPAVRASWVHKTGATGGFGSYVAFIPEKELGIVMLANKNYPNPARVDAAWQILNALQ
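AmpC, 20 mM phosphate pH 7.0; 15 min cpd preinc, RT; start with nitrocefin (800 uM stock); A480 kinetic read, 20 s intervals, 4 min. No-enzyme wells = negative control.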
* marks the source's active call; other numbers are inactive results; & = joins results of further samples; [ ] = dose if it differs, or a comment. Potency is read from the fitted curve at half-maximal effect. This is a subset, so the mix of outcomes need not match the whole.

| SMILES | AmpC inh no det |
| --- | --- |
| CN1CCN(c2ccccc2NC(=O)C(Cc2ccccc2)n2cccc2)CC1 (stereo not drawn) | 75% |
| O=C(OC1CCCCC1=O)c1cc(=O)c2ccccc2o1 (stereo not drawn) | -2% |
| O=C(NCCN1CCOCC1)c1ccc(CS(=O)(=O)Cc2ccccc2F)o1 | 2% |
| COc1ccc(-n2c(Cc3cccn3C)nnc2SCC(=O)NCC2CCCO2)cc1 (stereo not drawn) | 130% |
| CC1(c2ccccn2)Nc2ccccc2-c2nc3ccccc3n21 (stereo not drawn) | -3% |
| Cc1cccc(CN2CCN([C@@H](c3ccccc3)c3ccc(Cl)cc3)CC2)c1 | 11%[12.8 µM] |
| Cc1c(C(=O)N2CCN(C(=O)c3ccco3)CC2)sc2nc(-c3ccc(F)cc3)cn12 | 128% |
| N#Cc1cccc(-c2ccc3ncnc(NCCN4CCOCC4)c3c2)c1 | 55% |
| CCCCC(=O)N(c1ccc(OCC)cc1)C1C=CS(=O)(=O)C1 (stereo not drawn) | 21% |
| Cc1ccc(F)cc1NC(=O)C1CCCN(c2ncccn2)C1 (stereo not drawn) | 10% |
| CCNc1ccc(C(=O)OCC)cc1NC(=O)c1cccc(N(C)C)c1 | 31% |
| CCN(CC)c1ccc(NC(=O)c2ccccc2F)cc1 | -7% |
| CSc1nnc(Cc2ccc3c(c2)OCO3)o1 | 0% |
| Cc1cccc(-c2noc(CN(C(=O)c3ccc4c(c3)OCO4)C(C)C)n2)c1 | 52% |
| O=c1c2ccccc2c(C=NC2CCS(=O)(=O)C2)c(O)n1-c1ccccc1 (stereo not drawn) | 1% |
| CSc1ccc2c(c1)N(CC[C@H]1CCCCN1C)c1ccccc1S2 | 68%[12.8 µM] |
| O=[N+]([O-])c1ccc2ncccc2c1CCc1c([N+](=O)[O-])ccc2ncccc12 | -1%[5.75 µM] |
| c1csc(Cc2nn3c(-c4n[nH]c5c4CCC5)nnc3s2)c1 | -1% |
| N#CCSc1nc2cc(C(=O)N3CCCC3)ccc2c(=O)n1Cc1ccccc1 | 108% |
| Cc1ccccc1Nc1nc(N)nc(CSc2nc3ccccc3c(=O)n2CCCO)n1 | 86% |
| CC(=O)c1cccc(NC(=O)c2cc3nc(C)cc(C)n3n2)c1 | 18% |
| CCCCCCC(=O)N1CCC(c2nc3c(nnn3Cc3ccccc3Cl)c(=O)[nH]2)CC1 | 77% |
| O=C(CSCCO)N1CCc2ccccc21 | -2% |
| Cc1nc2ccc(C(=O)N3CCN(c4ccccn4)CC3)cc2s1 | 24% |
| CCCc1nc2c3cnn(-c4cccc(Cl)c4)c3ncn2n1 | -24% |
| Cc1ccc(C)c(Nc2ncnc3nc[nH]c23)c1 | 28% |
| CN[C@@H]1C[C@@H](c2ccc(Cl)c(Cl)c2)c2ccccc21 | 18% |
| COC(=O)c1cc2sccc2n1CC(=O)Nc1cccc(SC)c1 | -19% |
| COC(=O)C(NC(=O)c1ccccc1)c1ccccc1 (stereo not drawn) | 6% |
| Cc1cc(N2CCC(C)CC2)n2nc(C)c(-c3ccccc3)c2n1 | 35% |
| CC(C)(C)c1csc(NC(=O)Cn2cnc3ccccc3c2=O)n1 | 0% |
| Cc1ccc(C)c(NC(=O)CSc2nnc([C@@H](N)Cc3c[nH]c4ccccc34)o2)c1 | 44% |
| COc1cc2c(cc1OC)C1=C(C#N)COCN1CC2 | 15% |
| NS(=O)(=O)c1cc(Br)c(N=Nc2ccc(O)c3ncccc23)c(Br)c1 | -3%[5.75 µM] |
| COc1ccc(OC)c(S(=O)(=O)N2CCC(C(=O)NCC3CCCO3)CC2)c1 (stereo not drawn) | 14% |
| CC(C)(C)S(=O)(=O)c1c(C(=O)O)cccc1C(=O)O | -8% |
| Cc1nc2c(C(=O)N3CCCC3)c[nH]n2c(=O)c1Cc1ccc(F)cc1Cl | -2% |
| CC(C)c1[nH]nc2c1C(Cc1ccccc1)C(C#N)=C(N)O2 (stereo not drawn) | -13% |
| O=C1Nc2ccccc2C(O)(C(=O)NCc2ccco2)N1c1ccc(Cl)cc1 (stereo not drawn) | -21% |
| CC1=C(C#N)C(NC(=O)C2CC2)(C(F)(F)F)C(=O)N1 (stereo not drawn) | 4% |
| COC(=O)[C@@]1(Cc2ccccc2)[C@H]2c3cc(C(=O)N4CCCC4)n(CCSCCO)c3C[C@H]2CN1C(=O)c1ccccc1 | 164% |
| CCOC(=O)c1c(C)[nH]c(C(=O)C(C)OC(=O)c2cccc(OCc3c(C)noc3C)c2)c1C (stereo not drawn) | 36% |
| CC1CCN(C(=O)c2cc(-c3ccc(Cl)c(Cl)c3)on2)CC1 | 21% |
| CCc1nc(SCC(=O)NCC2CCCO2)c2oc3ccccc3c2n1 (stereo not drawn) | 55% |
| O=C(c1ccc2c(c1)N(Cc1ccccc1)C(=O)CS2)N1CCOCC1 | 18% |
| OC[C@@H]1O[C@@H](n2cnc3c(NCc4ccco4)ncnc32)[C@H](O)[C@H]1O | 14% |
| CC(c1ccccc1)n1c(-c2ccncc2)n[nH]c1=S (stereo not drawn) | -4% |
| COc1cccc(OCCCN2CCCCC2)c1 | -2% |
| CC(=O)c1c(C)nc2cc(Cl)ccc2c1N | -18% |
| CCn1c(SCC(=O)N(Cc2ccccc2)C2CCS(=O)(=O)C2)nc2ccccc2c1=O (stereo not drawn) | 114% |
| O=S(=O)(NCC1CCCO1)c1cc(Cl)ccc1Br (stereo not drawn) | 10% |
| Cc1cc(NC(=O)c2ccc3c(c2)C(=O)N(Cc2cccnc2)C3=O)no1 | 10% |
| COc1ccccc1N(CC(=O)NC1CCCCC1)C(=O)c1cnn(C(C)C)c1 | 57% |
| Cc1ccc(C)c(-n2nnnc2SCC(=O)NCCC2=CCCCC2)c1 | 8% |
| Cc1c(C#N)c2ncn(Cc3ccccc3)c(=O)c2n1-c1ccccc1 | 33% |
| CCC(=O)Nc1cccc(Br)c1 | -3% |
| O=C(NCc1ccccc1)C1CCCN(S(=O)(=O)c2cccnc2)C1 (stereo not drawn) | 0% |
| O=C(CN1CCC(n2nnc3cc(F)ccc32)CC1)NC1CC1 | 3% |
| CCCc1nc(NCc2ccncc2)c2nnn(Cc3ccccc3F)c2n1 | 44% |
| Cc1cc(S(=O)(=O)n2cnc3ccccc32)c(C)cc1Cl | -6% |

Next part.
| SMILES | AmpC inh no det |
| --- | --- |
| Cc1cc(N2CCN(C3CCCCC3)CC2)n2nc(C)nc2n1 | -1% |
| O=c1cc(-c2cccc(O)c2O)oc2ccccc12 | 4% |
| CC1CCCCC1n1c(=S)[nH]c2ccccc2c1=O (stereo not drawn) | -7% |
| COc1ccc(-n2ncc3c(=O)n(CC(=O)N4CCCc5ccccc54)cnc32)cc1 | 77% |
| CCCS(=O)(=O)N1CCC(C(=O)NCc2cccnc2)CC1 | -8% |
| O=C1NCCN1C(=O)c1ccccc1F | -7% |
| CCOC(=O)c1cc(-c2ccc(Cl)s2)nc2c1c(C)nn2C | 45% |
| CCCN1C(=O)SC(CC(=O)Nc2ccc(Br)cc2)C1=O (stereo not drawn) | 4% |
| CN1C(=O)NC(NC(=O)c2ccncc2)(C(F)(F)F)C1=O (stereo not drawn) | -4% |
| CN(Cc1ccco1)c1ccnc(-c2ccoc2)n1 | 50% |
| Cl.Cl.Cl.Cl.Cl.Cl.N.N.N.N.NNNNN.NNNNN.O.O.[Ru].[Ru].[Ru] | 5µM* |
| COc1ccc(-c2csc(N(CCCN3CCOCC3)C(=O)c3ccco3)n2)cc1 | 139% |
| CCCCn1c(SCC(=O)c2ccccc2)nc2c1c(=O)[nH]c(=O)n2C | 22% |
| COc1ccc(S(=O)(=O)Nc2ccccn2)c(C)c1C | 0% |
| CCn1c(SCC(=O)N2CCCC2)nc2ccccc2c1=O | 8% |
| CCOc1ccc2nc(NS(=O)(=O)c3ccc(NC(C)=O)cc3)sc2c1 | -20% |
| Cc1nc(C)n(CC(O)COc2ccc(C(=O)c3ccccc3)cc2)n1 (stereo not drawn) | 26% |
| COc1ccc(N2CSC3=C(C#N)C(c4cccc(OC)c4OC)CC(=O)N3C2)cc1 (stereo not drawn) | 4µM*[single pt active] |
| O=C1N(CC(=O)N2CCc3ccccc32)CCN1Cc1ccccc1Cl | 25% |
| COC(=O)[C@H]1C[C@@H]1[C@H](NC(=O)c1cnccn1)c1ccccc1 | 10% |
| COc1ccccc1OCCC(=O)OCC(=O)Nc1ncc(Cl)cc1Cl | 11% |
| c1ccc(-n2nnnc2Oc2ccc(-c3nnco3)cc2)cc1 | -3% |
| O=S(=O)(NCCOCC(F)(F)F)c1ccc2oc3ccccc3c2c1 | 3% |
| Cc1cc(=O)[nH]c(SCc2cccc(Br)c2)n1 | -7% |
| CC(C)(C)OC(=O)c1c(N)n(CCCN2CCCC2=O)c2nc3ccccc3nc12 | 72% |
| COc1ccc(N2CC(C(=O)Nc3ccccc3C(=O)NCc3ccco3)CC2=O)cc1 (stereo not drawn) | 16% |
| O=C(NC1CCC(NC(=O)C2CCCO2)CC1)C1CCCO1 (stereo not drawn) | 0% |
| CC(=O)c1nn(-c2cccc(Cl)c2)cc1C(=O)c1ccco1 | 22% |
| Cc1ccc(CSc2nc3c(c(=O)[nH]2)C(c2ccncc2)C2=C(CCCC2=O)N3)cc1 (stereo not drawn) | 48% |
| COCC(C)NC(=O)COc1ccc(Cl)cc1Cl (stereo not drawn) | 18% |
| Cc1c(C(=O)N2CCc3ccccc32)oc2c1C(=O)CC(C)(C)C2 | -1% |
| Cc1noc(C)c1S(=O)(=O)N1CCCC(C(=O)NCC2CCCO2)C1 (stereo not drawn) | -2% |
| CC(=O)Nc1cc2ccc(OC(C)=O)cc2oc1=O | 4µM*[single pt active] |
| CC1=NN=C(c2ccc(N)cc2)c2cc3c(cc2C1)OCO3 | 51%&6% |
| COc1cc(C(=O)N2CCC(C(=O)Nc3cccc(C(C)=O)c3)CC2)cc(OC)c1OC | 111% |
| CCOC(=O)c1ccc(NC(=O)Cn2nnc(-c3ccc(F)cc3)n2)cc1 | 8% |
| CN1CCN(C(=O)c2ccc(C(C)(C)C)cc2)CC1 | 29% |
| Cc1ccccc1Cn1cnc2c(cnn2C(C)(C)C)c1=O | 19% |
| CC(C)Cn1c(SCC(=O)c2ccc(Cl)s2)nnc1-c1ccco1 | 54% |
| CCN(Cc1ccncc1)S(=O)(=O)c1ccc(C(C)=O)cc1 | 44% |
| O=C(CSc1nnc(C2CCCCC2)n1-c1ccccc1)NCc1ccco1 | 46% |
| CN(CC(=O)N1CCCc2c1c(=O)oc1ccc(O)cc21)Cc1ccccc1 | -3% |
| N#Cc1cccc(-c2cc(-n3ccnc3)ncn2)c1 | 5% |
| COc1cc2c(cc1NC(=O)c1ccc3c(c1)OCO3)oc1ccccc12 | -14% |
| Cc1ccc(N2CC(C(=O)N3CCN(c4ccccc4)CC3)CC2=O)cc1 (stereo not drawn) | 41% |
| O=C(Nc1ccc(Br)cc1F)c1ccncc1 | 3% |
| CCOC(=O)CCCSc1nc2sc(C)c(C)c2c(=O)[nH]1 | 6% |
| CC(Sc1cccc(C(F)(F)F)c1)C(=O)NC(N)=O (stereo not drawn) | -7% |
| c1ccc(Cc2nnc3sc(-c4ccc5c(c4)OCO5)nn23)cc1 | 33% |
| Nc1ccc(-c2ccc(N)c(O)c2)cc1O | 0.79µM* |
| Cc1nc2c3ccccc3[nH]c(=O)n2n1 | 2% |
| CC1(C)OC[C@@H]2O[C@H](n3cnc4c(N)nc(Cl)nc43)[C@@H](OS(C)(=O)=O)[C@@H]2O1 | -2%[5.75 µM] |
| O=C(COc1ccccc1)NCCSCc1ccco1 | 22% |
| COCC(=O)N1CCC2(CCCN(c3ccc(-c4ccccc4)cc3)C2)CC1 | 148% |
| CCC(c1nc2ccccc2c(=O)n1-c1cccnc1)N1C(=O)c2ccccc2C1=O (stereo not drawn) | 89% |
| Cc1cc(NC(=O)COc2cccc3cccnc23)no1 | -2% |
| Cn1c(=O)[nH]c(=O)c2c1nc(Br)n2CCOc1ccccc1 | -4% |
| O=C(NCC(c1cccnc1)N1CCN(c2ccccc2)CC1)c1ccc2c(c1)OCO2 (stereo not drawn) | 31% |
| CC1(C)CC(=O)c2cnc(NCc3ccco3)nc2C1 | -10% |
| CN(C)CCCCSC(=N)N | -14%&-5% |

Six compounds from above, ordered by number of heavy atoms, largest number first.
| SMILES | AmpC inh no det |
| --- | --- |
| O=C(NCC(c1cccnc1)N1CCN(c2ccccc2)CC1)c1ccc2c(c1)OCO2 (stereo not drawn) | 31% |
| O=C1Nc2ccccc2C(O)(C(=O)NCc2ccco2)N1c1ccc(Cl)cc1 (stereo not drawn) | -21% |
| CC1(C)OC[C@@H]2O[C@H](n3cnc4c(N)nc(Cl)nc43)[C@@H](OS(C)(=O)=O)[C@@H]2O1 | -2%[5.75 µM] |
| CCCCC(=O)N(c1ccc(OCC)cc1)C1C=CS(=O)(=O)C1 (stereo not drawn) | 21% |
| CC(=O)c1nn(-c2cccc(Cl)c2)cc1C(=O)c1ccco1 | 22% |
| CN1CCN(C(=O)c2ccc(C(C)(C)C)cc2)CC1 | 29% |

(more compounds)
| SMILES | AmpC inh no det |
| --- | --- |
| Cc1ccc(S(=O)(=O)N(C)CCCC(=O)n2nc(C)cc2C)cc1 | 32% |
| CCn1c(CNC(=O)c2ccc3c(c2)OCO3)nnc1SCC(=O)Nc1cc(C)ccc1OC | 54% |
| O=C1c2ccccc2C(=O)C1(O)O | -7% |
| COc1ccc(C(=O)N2CCC3(CCN(Cc4ccccc4OC)CC3)CC2)cc1 | 12% |
| COc1ccc(N(C(C)C(=O)NC2CCCCCC2)S(C)(=O)=O)cc1 (stereo not drawn) | 12% |
| CCCCS(=O)(=O)/C=C\C1C2C=CC(C2)C1S(=O)(=O)CCCC (stereo not drawn) | 28% |
| CCN(CCNC(=O)C1CCN(Cc2nc(-c3ccc(Cl)cc3)oc2C)CC1)c1ccccc1 | 140% |
| Cc1nc2ccccc2c(=O)n1/N=C/c1c(O)ccc2oc3c(c12)CCCC3 | 58% |
